From PubChem
Marburg entry inh: Marburg virus entry inhibition. AID 540276. actives 1.8% (n = 300,000). Marburg virus pseudotyped entry inhibition, cell reporter; control for the full effect not named in the record; about a third of the inactives were read at about 46 µM. Potency, µM (doses to about 37.8 µM), inactives show top-dose activity change, negative = inhibition, usual class: inhibitors; active = well fitted inhibition curve with a large enough effect; inconclusive = small, poorly fitted or top-dose-only effect, or effect the other way; inactive = flat fitted curve, though single readings scatter; tested in HEK293 cells; about a fifth of its hits are not listed in these tables; also: % is scaled to controls: 0 for no effect and ±100 for the full control effect; luciferase read-out
SARS PLpro yeast: blocks SARS-CoV papain-like protease in a yeast assay; S. cerevisiae expressing SARS-CoV PLpro, growth rescue; control for the full effect not named in the record; Potency, µM (highest dose often 32.9 µM), for the others: at the highest dose activity, positive = growth rescue; actives 0.19% (n = 330,000); also: 0% is about no effect; nearly all actives have a fitted effect of over 55% in size; growth read by luminescence after 48 h
RE007 growth inh: less growth of the S. pombe RE007 Vpr strain | actives 0.21% (n = 360,000) | S. pombe RE007 Vpr strain, BacTiter-Glo ATP luminescence, 24 h; control for the full effect not named in the record | AID 651644 | Potency, µM (titrated, usually from 92.2 µM), inactives show top-dose activity change, negative = less growth; active = well fitted falling curve with a large enough effect; inconclusive = small, poorly fitted or top-dose-only effect; inactive = no such curve, though single readings can be large or run the other way;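 also: % is scaled to controls: 0 for no effect and ±100 for the full control effect; nearly all actives have a fitted effect of over 50% in size; the assay follows cell death caused by Vpr and the record does not say whether a fall means rescue or toxicity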
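Fission yeast RE007 carrying one integrated HIV-1 vpr copy, seeded at OD 0.01 in PMG+AL medium with 23 nL pinned compound. Grown 24 h at 30 degrees; viability read by BacTiter-Glo luminescence after 5 min.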
StopGo reporter: lowers the luciferase signal of an FMDV 2A StopGo reporter; human cells with a luciferase reporter of 2A StopGo recoding; control for the full effect not named in the record; Potency, µM (series often up to 57.9 µM), without a hit: at the top dose signal change, negative = less light; actives 1.2% (n = 410,000); AID 1159524; active = well fitted falling curve with a large enough effect; inconclusive = small, poorly fitted or top-dose-only effect; inactive = no such curve, though single readings can be large or run the other way; tested in HEK293T cells; also: % is scaled to controls: 0 for no effect and ±100 for the full control effect; nearly all actives have a fitted effect of over 45% in size; luciferase light after 4 h
Cruzain noTriton: cruzain (T. cruzi) inhibition without detergent; P25779; purified cruzain, Z-FR-AMC fluorescence, no detergent; Potency, µM, without a hit: max response, negative = inhibition, hits mostly inhibitors; actives 2.3% (n = 200,000); AID 1476; active = well fitted curve in the direction sought with a large enough effect; inconclusive = small, poorly fitted or top-dose-only effect, or another doubt; inactive = no such curve, though single readings can be large; an effect the other way counts as inactive or inconclusive;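 also: plate controls were enzyme without inhibitor for no effect and buffer without enzyme for full effect; nearly all actives have a fitted effect of over 40% in size; top concentration of the series not given in the record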
Target sequence (P25779 123-467 limits assumed): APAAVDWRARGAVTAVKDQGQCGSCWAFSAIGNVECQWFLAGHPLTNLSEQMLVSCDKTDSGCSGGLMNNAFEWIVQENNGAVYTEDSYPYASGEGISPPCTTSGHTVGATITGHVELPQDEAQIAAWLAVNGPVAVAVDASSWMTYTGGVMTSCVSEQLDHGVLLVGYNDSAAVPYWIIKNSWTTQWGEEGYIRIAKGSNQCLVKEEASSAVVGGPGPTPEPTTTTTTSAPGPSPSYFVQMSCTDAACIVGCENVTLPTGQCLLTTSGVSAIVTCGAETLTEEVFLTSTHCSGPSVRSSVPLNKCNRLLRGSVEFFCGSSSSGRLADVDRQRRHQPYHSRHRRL
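Detergent-free condition (0.00005% Triton X-100) in acetate buffer pH 5.5 with DTT. 1.5 nM enzyme and compound were pre-mixed 15 min, then 2 uM Z-FR-AMC substrate added; reaction progress from fluorescence change between first and third reads (60 s).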
NS1 inh: influenza NS1 inhibition; S. cerevisiae slowed by influenza A NS1, growth recovery by OD600; Potency, µM (doses to about 46.1 µM), for inactives: top-dose activity, positive = more growth; actives 0.4% (n = 270,000); AID 2326; also: actives are rising curves; nearly all actives have a fitted effect of over 50% in size
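Compounds were scored for reversing the slow growth caused by influenza A NS1 in S. cerevisiae, measured by optical density at 600 nm. Assay medium contained 2% galactose at pH 6.0; NS1-free yeast of the same strain were the positive control.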
Lassa entry inh: Lassa virus entry inhibition. Lassa virus pseudotype entry inhibition, cell reporter; control for the full effect not named in the record. Potency, µM (highest dose often 37.9 µM), for the others: at the highest dose activity change, negative = inhibition, hits mostly inhibitors. actives 1.2% (n = 300,000); active means well fitted inhibition curve with a large enough effect; inconclusive means small, poorly fitted or top-dose-only effect, or effect the other way; inactive means flat fitted curve, though single readings scatter; tested in HEK293 cells; also: % is scaled to controls: 0 for no effect and ±100 for the full control effect; nearly all actives have a fitted effect of over 50% in size; luciferase read-out
Cruzain Triton: inhibitors of Trypanosoma cruzi cruzain with detergent; Potency, µM, without a hit: max response, negative = inhibition, most hits filed as inhibitors; actives 0.43% (n = 200,000); AID 1478; purified cruzain, Z-FR-AMC fluorescence, 0.01% Triton; P25779; active = well fitted curve in the direction sought with a large enough effect; inconclusive = small, poorly fitted or top-dose-only effect, or another doubt; inactive = no such curve, though single readings can be large; an effect the other way counts as inactive or inconclusive;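 also: plate controls were neutral wells for no effect and buffer without enzyme for full effect; nearly all actives have a fitted effect of over 40% in size; top concentration of the series not given in the record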
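Purified cruzain (1.5 nM final) was preincubated with compounds for 15 min at room temperature in 100 mM sodium acetate pH 5.5, 5 mM DTT, 0.01% Triton X-100. Reaction started with 2 uM Z-FR-AMC; AMC fluorescence change over 60 s gave activity.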
* marks the source's active call; other numbers are inactive results; ? = inconclusive; . = not tested or not shown; & = joins results of further samples; [ ] = dose if it differs, or a comment. Unless noted, calls follow the shape of the dose curve; as a rule, active means well fitted rising curve with a large enough effect; inconclusive means small, poorly fitted or top-dose-only effect; inactive means no such curve, though single readings can be large or run the other way. Potency is read from the fitted curve at half-maximal effect.

SMILES | Marburg entry inh | SARS PLpro yeast | RE007 growth inh | StopGo reporter | Cruzain noTriton | NS1 inh | Lassa entry inh | Cruzain Triton
CC(C)(C)c1ccc(/C=N/N2C(=O)CSC2=S)cc1 | ? | 1.2% | 7.4% | ? | . | -12.0% | -2.4%[46.1 µM] | .
Cc1ccc(C)n1NC(=O)c1ccccc1Cl | -26.9% | 0.9% | -18.1% | -4.3% | ? | 8.4% | 0.5% | 2.5%
CCc1cnc2c(c1SCC(=O)c1ccccc1)c(=O)n(C)c(=O)n2C | . | . | . | -24.2% | -9.7% | . | ? | -4.7%
O=C(CCNC(=O)c1ccc(Br)cc1)NCc1ccco1 | -21.9%[46.1 µM] | 2.4% | 0.8% | -2.8% | . | . | -1.3% | .
O=C(Cn1cnc2cc([N+](=O)[O-])ccc2c1=O)NCc1ccccc1 | ? | 3.0% | -19.4% | -15.5% | . | 0.2% | -4.8% | .
Cc1nc([N+](=O)[O-])cn1-c1ccc(N)cc1 | 0.8% | 3.2% | -11.3% | -15.7% | 10.6% | 9.5% | 22.3% | -4.1%
CN(C)CCCNC(=O)N1c2ccccc2Sc2ccccc21 | ? | 9.5% | -9.9% | 43.2%[activator] | . | 24.2% | -19.3%[46.1 µM] | .
CCCCn1c(=O)c(C(=O)OCC)c(O)c2ccccc21 | 16.8% | -11.4% | -4.1% | 0.0% | 6.8% | -59.2% | 9.2% | -4.5%
CC(C)c1nn2c(=O)cc(CSc3ccccc3NC(=O)c3ccccc3F)nc2s1 | -13.5%[46.1 µM] | -0.1% | 16.8% | -4.7% | . | -14.6% | ? | .
COc1cc2c(cc1OC)CN(CC(=O)Nc1ccc(C#N)cc1)CC2 | ? | -1.6% | -9.6% | 6.0% | -6.3% | -17.9% | -2.2% | 7.2%
COc1ccc(NC(=O)CCn2ccnc2)c(OC)c1 | 21.1%[46.1 µM] | -0.4% | 4.7% | -8.9% | . | 4.3% | ? | .
O=C(NNCC(O)COc1ccccc1)c1ccccc1 (stereo not given) | 3.5% | 0.9% | 14.5% | 15.3% | -7.8% | 21.0% | 18.8% | -0.6%
COc1ccccc1N1CCN(c2ccc(=O)n(CC(=O)NCc3ccc(F)cc3)n2)CC1 | . | . | . | ? | ? | . | 5.1%[46.1 µM] | 2.2%
COc1ccc(C(=O)N2CC(=O)Nc3ccc(F)cc3C2c2ccc(F)cc2)c(OC)c1 (stereo not given) | -6.7%[46.1 µM] | . | . | -22.7% | -0.6% | . | -29.3%[46.1 µM] | -3.6%
CC[C@@H](C)[C@H](NC(=O)CCc1c(C)c2cc3c4c(oc3c(C)c2oc1=O)CCCC4)C(=O)O | . | -0.2% | 0.2% | -7.7% | . | ? | . | .
O=C(NC1CCCCC1)NC1CC2CCCC(C1)N2C1CCCC1 (stereo not given) | ? | 2.2% | -25.3% | 13.9% | -2.5% | 12.2% | 14.3% | 4.6%
Cc1nn(C(=O)c2cccnc2)c(C)c1C | 3.3% | -2.4% | 7.1% | -10.5% | -2.6% | 3.3% | -2.2% | 2.2%
COC(=O)c1cn(C(=O)OC)c2ccccc12 | ? | -3.1% | -18.2% | 14.2% | 9.1% | -17.3% | 4.3% | 4.4%
Cc1nnc(NC(=O)Nc2cccc(Cl)c2)s1 | 25.6% | -7.6% | -8.0% | -8.0% | -0.5% | -13.3% | -1.3% | 0.9%
CN(C)CCOc1ccccc1C(C)(C)C | -23.5% | 0.4% | -0.8% | -16.3% | -4.1% | 10.9% | 0.5% | -6.8%
Cc1ccc2nsnc2c1NC(=O)c1ccccc1[N+](=O)[O-] | 5.6% | ? | 2.4% | -23.5% | -5.0% | 9.6% | 23.5% | -6.4%
CCc1nnc(NC(=O)CN2CCN(CC)CC2)s1 | . | -2.5% | -6.6% | 4.0% | . | 0.7% | . | .
CCOc1ccc(CN2C(=O)c3ccccc3Sc3ccc(C(=O)NCCCN4CCOCC4)cc32)cc1 | ? | -1.1% | 21.5% | -14.1%&-11.0% | ? | 17.0% | ? | -5.5%
Cc1ccccc1N1CC(C(=O)N2CCCCCC2)CC1=O (stereo not given) | 7.4%[46.1 µM] | . | -9.7% | 14.5% | . | . | 11.1% | .
CCCNc1nc(Nc2ccc(C)c(Cl)c2)c2cnn(C)c2n1 | . | -1.0% | 13.0% | ? | . | -5.2% | . | .

Following part
SMILES | Marburg entry inh | SARS PLpro yeast | RE007 growth inh | StopGo reporter | Cruzain noTriton | NS1 inh | Lassa entry inh | Cruzain Triton
O=C(COc1ccc2c(-c3ccccc3)cc(=O)oc2c1)NCC1CCC(C(=O)O)CC1 (stereo not given) | . | 0.9% | 1.3% | -11.9% | . | 27.2% | . | .
CC(=O)c1cc(NC(=O)c2ccc(C)cc2)c(=O)oc1C | ? | -4.6% | -17.4% | 14.1% | . | -1.6% | 26.5% | .
Nc1nc(-c2ccc(C(=O)O)cc2)cs1 | -0.9%[46.1 µM] | 2.0% | -22.6% | 0.9% | . | . | 5.3% | .
COC(=O)/C=C1\NC(=O)C(C)S1 (stereo not given) | 4.3%[46.1 µM] | 3.4% | -6.9% | -14.2% | . | 0.1% | ? | .
Cn1cncc1COC(=O)c1ccc(Cl)cc1 | -4.3%[46.1 µM] | 1.6% | -3.4% | -21.0% | . | 1.2% | 9.9%[46.1 µM] | .
CC(=O)N/C(=C\c1ccccc1)C(=O)OCC(=O)N1CCCCCC1 | -1.3% | -1.9% | 5.2% | -2.9% | 0.1% | 2.7% | ? | -14.8%
O=S(=O)(/N=C(/Nc1cccc2ccccc12)c1ccccc1)c1ccccc1 | -2.9%[46.1 µM] | -1.7% | 17.8% | 10.8% | . | 16.4% | ? | .
O=C(CN1C(=O)c2cccc3cccc1c23)NCC1CCCO1 (stereo not given) | -9.5%&-9.5% | ? | 9.7% | 5.9% | 0.7% | 19.9% | 7.6% | 0.9%
O=C(CSc1oc(-c2cccs2)nc1S(=O)(=O)c1ccccc1)Nc1ccc(F)cc1 | 20.1%[46.1 µM] | . | . | 21.4% | -1.5% | . | 10.0%[46.1 µM] | -4.6%
COc1ccc(Nc2ccc3ccccc3c2)cc1 | ? | . | -19.8% | 45.4%[activator] | . | . | ? | .
Cc1nc2oc3ccc(F)cc3c(=O)c2cc1C(=O)O | 18.4%[46.1 µM] | -5.3% | -3.1% | 14.4% | . | -0.1% | 2.6%[46.1 µM] | .
Cc1ccc(NC(=O)c2sc3nc4c(c(-c5ccco5)c3c2N)CCC4)cc1 | 14.2% | 7.6% | -9.8% | -21.9% | -22.7% | ? | -12.5% | -3.0%
O=C(O)CC1CCC(=C(Cl)Cl)C1 (stereo not given) | 12.4% | 2.7% | -14.6% | . | 5.5% | -62.4% | 6.4% | 0.8%
O=C(N/N=C\c1ccc(CN(Cc2ccc(Cl)cc2)S(=O)(=O)c2ccccc2)o1)C(=O)Nc1ccc(F)cc1 | ? | -7.4% | -13.3% | 15.8% | 7.94µM* | 4.5% | -2.8% | 1.6%
Cc1cc2cc(C)c(NCCNC(=O)c3ccccc3)nc2cc1C | . | -0.2% | 13.8% | -8.4% | . | -2.8% | . | .
COc1cccc(N2CC(C(=O)NCc3n[nH]c(=O)c4ccccc34)CC2=O)c1 (stereo not given) | 13.8% | 4.3% | -23.4% | -11.5% | . | . | -26.9% | .
CCOC(=O)NC(=O)CSc1nc(-c2ccc(C)c(C)c2)cn1-c1ccccc1 | ? | -33.6% | -3.7% | -13.2% | 4.7% | -16.7% | -15.8% | -2.5%
CC1(C)CC(=O)N(CC(=O)NCc2ccccc2)c2ccccc2S1(=O)=O | . | 1.5% | -3.0% | -9.8% | -0.6% | -9.5% | . | 0.9%
COC(=O)C(Cc1ccccc1)NS(=O)(=O)c1ccccc1Br (stereo not given) | . | 3.4% | 4.0% | 94.8%[activator] | . | -6.5% | . | .
Cc1cccc(CCNC(=O)C2CCC(=O)N(Cc3ccc(Cl)cc3)C2)n1 (stereo not given) | 22.0% | -4.0% | 0.0% | -11.9% | . | 15.5% | ? | .
C=CCSc1nc(Cc2ccc(Cl)cc2)nc2ccccc12 | -0.1% | 0.7% | -13.4% | 7.5% | -4.7% | -8.9% | 5.4% | -9.6%
COc1ccc(N2CCN(S(=O)(=O)c3csc(C(N)=O)c3)CC2)cc1 | . | . | . | -17.1% | 7.4% | . | 9.1%[46.1 µM] | 0.6%
CCCCOc1ccc(Cc2c(O)nc(SC)[nH]c2=O)cc1 | 5.1% | -0.9% | -5.8% | -4.8% | . | 11.0% | 19.0% | .
COC(=O)c1oc2ccc(Br)cc2c1NC(=O)CN1CCN(C)CC1 | 2.9% | . | -23.7% | 1.9% | . | 1.1% | 17.8% | .
O=C(CN1CCC(NC(=O)C2CCCCC2)CC1)Nc1ccccc1 | -11.1%[46.1 µM] | . | 3.8% | -10.1% | . | . | -16.8% | .
COc1ccc(OCCCC(=O)OC(C)C(=O)Nc2ccccc2[N+](=O)[O-])cc1 (stereo not given) | 0.5% | 0.4% | -2.4% | 2.3% | . | . | -0.5% | .
CCOC(=O)C1CCN(c2csc3ccc(C)cc3c2=O)CC1 | . | . | . | 4.2% | -0.9% | . | -0.5%[46.1 µM] | -4.1%

Whole records from above. Values in the order: Marburg entry inh, SARS PLpro yeast, RE007 growth inh, StopGo reporter, Cruzain noTriton, NS1 inh, Lassa entry inh, Cruzain Triton
`CCCCOc1ccc(Cc2c(O)nc(SC)[nH]c2=O)cc1` as listed: 5.1%, -0.9%, -5.8%, -4.8%, ., 11.0%, 19.0%, .
`O=C(O)CC1CCC(=C(Cl)Cl)C1` (stereo not given) as listed: 12.4%, 2.7%, -14.6%, ., 5.5%, -62.4%, 6.4%, 0.8%
`O=C(CSc1oc(-c2cccs2)nc1S(=O)(=O)c1ccccc1)Nc1ccc(F)cc1` as listed: 20.1%[46.1 µM], ., ., 21.4%, -1.5%, ., 10.0%[46.1 µM], -4.6%
